NPYLR7 agonist = agonists of mosquito NPYLR7 receptor, primary screen, cell-based, Aedes aegypti, calcium fluorescence, mosquito biting behavior; HEK293T NPYLR7/Galpha15, GCaMP6s calcium fluorescence; 270,000 tested, 0.15% active; AID 1259423, 2018; activation, % at 10 µM; in the data active = activation above about 40%;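 note: 0% = vehicle and 100% = reference agonist at the receptor; some compounds past the cut are filed as inactive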
NPYLR7 agonist max-min = also measured in NPYLR7 agonist; calls as there; activation, %; measured here: Max-Min RFU normalised activation; some inactives read as strong as hits;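 span of the calcium signal over five minutes; 0% = vehicle and 100% = native peptide agonist; compound fluorescence can raise it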
Starred values were filed as active, the others as inactive. Some of the compounds tested; the hit share may differ from the screen's.

SMILES	NPYLR7 agonist	NPYLR7 agonist max-min
CCOC(=O)CCC(=O)N1CCC(c2nc(-c3ccncc3)no2)CC1	-5.8	-9.3
O=C(Oc1nsnc1N1CCCCC1)N1CCOCC1	8.1	1.0
O=C(O)CNc1ccccc1C(=O)NCCc1cccc(F)c1	-0.1	-9.5
CCc1oc2c(Cl)cc(-n3cnnc3)cc2c1C	6.4	4.1
O=C(CNC(=O)CCc1ccccc1)N=Nc1c(O)[nH]c2ccccc12	-3.3	-7.9
Cc1[nH]c(=O)n(C)c(=O)c1CCC(=O)Nc1ccc(S(N)(=O)=O)cc1	-5.3	-13.4
COc1ccc(C(=O)Nc2ccc(F)cc2C)cc1OC	4.7	5.4
COC(=O)C1=CNC=C(C(=O)OC)C1c1cccs1	4.1	0.9
CN(C(=O)CSc1nnc(-c2ccccc2F)o1)C1(C#N)CCCCC1	2.7	2.5
CC(C)C1=NOC(C(=O)N2CCC(N3CCC(C(=O)NC4CC4)CC3)CC2)C1 (centres undefined)	6.8	11.2
COC(=O)c1nnn(-c2nonc2N)c1C(C)(C)C	1.5	-1.2
CC(=O)OC(C(=O)Nc1ccc(OC2CCN(C(=O)OC(C)(C)C)C2)cc1)c1ccccc1 (centres undefined)	24.8	3.1
COc1cccc(-c2cnc(-c3ccc(CNC(=O)c4cccnc4Sc4ccccc4)cc3)[nH]2)c1	16.2	22.7
Cc1cccc(C(=O)N2C(C(=O)NCc3ccco3)COC23CCN(C(=O)c2ccc(Cl)c(Cl)c2)CC3)c1 (centres undefined)	2.6	8.9
O=S(=O)(c1ccccc1OC(F)(F)F)N1CCN(C(c2ccccc2)c2ccc(Br)cc2)CC1 (centres undefined)	31.2	16.1
O=C(CCC1NC(=O)NC1=O)NCCC1=CCCCC1 (centres undefined)	0.9	1.5
COCCNc1cc(C)nc2c(-c3ccccc3Cl)c(C(F)(F)F)nn12	0.5	-5.8
CC(C)C(=O)N(Cc1cc(N)ccc1N(C)C)C(C)c1ccccc1 (centres undefined)	-2.1	-6.1
CCOC(=O)C(CCOCCOc1c(C)cc(C)cc1C)C(=O)OCC	-14.5	-25.0
CNS(=O)(=O)c1cc(C(=O)NC2CCCC2)cc(C)c1C	7.6	6.8
CCCc1cc(=O)n(CC(=O)Nc2ccc(F)cc2)c(-n2nc(C)cc2C)n1	5.9	5.7
CC(=O)Nc1ccc(CC(=O)Nc2c(C)cccc2C)cc1	0.6	0.6
CC(C)CCNC(=O)c1cn(C)c2c(=O)n(-c3ccccc3)c(=O)[nH]c12	4.1	2.2
CC(c1ccc(F)cc1)N(C)C(=O)C1CCN(S(=O)(=O)c2cc(C(N)=O)n(C)c2)CC1 (centres undefined)	3.8	2.7
Cc1cccc(CSCc2nc3ccsc3c(=O)[nH]2)c1	0.8	1.4

Next section; the last 3 above are carried over.
SMILES	NPYLR7 agonist	NPYLR7 agonist max-min
CC(C)CCNC(=O)c1cn(C)c2c(=O)n(-c3ccccc3)c(=O)[nH]c12	4.1	2.2
CC(c1ccc(F)cc1)N(C)C(=O)C1CCN(S(=O)(=O)c2cc(C(N)=O)n(C)c2)CC1 (centres undefined)	3.8	2.7
Cc1cccc(CSCc2nc3ccsc3c(=O)[nH]2)c1	0.8	1.4
Cc1ccc(NC(=O)CSc2nc3c(c(=O)n2Cc2ccccc2)SC(C)C3)cc1 (centres undefined)	6.3	7.5
COc1cc2c(cc1OC)C(=O)C(Sc1nc3ccccc3o1)C2 (centres undefined)	-0.9	13.9
Fc1ccc(Nc2nc3ccccc3n3cnnc23)c(F)c1	4.5	4.1
O=C(Nc1ncn[nH]1)NC1CCCCC1	6.1	5.1
CC(C)NC(=O)C1(C)CCN1C(=O)c1cccc(F)c1 (centres undefined)	0.5	-1.8
O=C(Nc1ncccc1O)C(Cc1ccccc1)N1C(=O)C2C3C=CC(C3)C2C1=O (centres undefined)	2.2	9.2
CCCCc1cnc2c(c1SCC(=O)Nc1nnc(C)s1)c(=O)n(C)c(=O)n2C	0.8	5.8
CCOC(=O)Cc1c(C)nc2ncnn2c1N1CCN(C(=O)NC2CCCCC2)CC1	-2.3	-5.1
Cc1cnn(CC(=O)N2CCOc3c(O)cc(-c4cccc(Cl)c4)cc3C2)c1	4.7	-1.1
CCOC(=O)C1=C(C)NC(=O)NC1c1cccc(C(F)(F)F)c1 (centres undefined)	5.3	-3.2
CC(=O)N1CCc2c(nc(N(C)C)nc2N(C)CCCn2cccn2)C1	3.9	0.5
CC(C)[C@H]1CC[C@H](C)C[C@@H]1OCC(=O)N1CCSC1	-5.3	-12.4
CCOc1ccc(C(c2c(O)cc(C)n(CC)c2=O)N2CCN(CCO)CC2)cc1 (centres undefined)	7.7	-1.1
Cc1ccc(OCc2cc(C(=O)N(C)CCC3CCCCO3)no2)cn1 (centres undefined)	1.8	-0.3
C=CCN(CC(=O)N1CCc2sccc2C1c1ccc(F)cc1)S(=O)(=O)c1ccc(Cl)cc1 (centres undefined)	-7.9	4.9
CCc1ccc(C(=O)N2CCC[C@@H]2C(=O)NC2CCCC[C@H]2NC(=O)c2ccc(F)cc2)cc1 (some centres undefined)	0.7	8.9
COc1ccc(NC(=O)CN2CCCc3ccccc32)c(OC)c1	-9.6	-8.5
Cc1nc(-c2ccncc2)ncc1C(C)NC(=O)CN1CCCCC1 (centres undefined)	3.1	1.9
CN(C(=O)c1cccs1)c1ccccc1-c1n[nH]c(CCc2ccccc2)n1	2.8	2.7
Cc1noc(C)c1S(=O)(=O)Nc1cc(-c2ccco2)nn1C1CCS(=O)(=O)C1 (centres undefined)	-0.3	-0.8
COc1cc([N+](=O)[O-])c(Cl)cc1N	-8.1	-14.1
CCCCNC(=O)c1cc(-c2ccccc2)n(-c2cc(OC)ccc2OC)c1C	5.6	3.3
CCc1c(C)cc(C(=O)NC(CC)c2ccnn2C)c(=O)n1C (centres undefined)	1.7	2.2
CC(C)c1ccc(NC(=O)C(C2CCCC2)N2CCN(C(=O)c3cccc([N+](=O)[O-])c3)CC2)cc1 (centres undefined)	-1.1	5.8
CC1=CC2C(CC1=O)C(C)=CCC2C(C)C (centres undefined)	-0.1	-5.8
SMILES	NPYLR7 agonist	NPYLR7 agonist max-min
CCCCN(CC(=O)N(Cc1cccn1Cc1ccc(Br)cc1)C1CCCCC1)S(=O)(=O)c1ccc(C(C)(C)C)cc1	-6.7	4.1
COc1ccc(S(=O)(=O)Nc2cccc([N+](=O)[O-])c2)cc1Br	-1.2	3.6
COCC(=O)NC1CCN(c2ccccc2C(=O)NCc2cccc(F)c2)CC1	-0.4	7.5
O=C1OC(c2ccccc2F)=N/C1=C\C(Br)=C\c1ccccc1	-1.0	-4.7
CC(C)(C(=O)Nc1ccc(F)cc1)c1ccc2c(c1)OCCO2	-4.2	-3.7
CC1(C(=O)NCc2ccccc2Br)CCN1C(=O)CC(c1ccccc1)c1ccccc1 (centres undefined)	13.7	12.1
CCOC(=O)c1sc(=NC(=O)c2ccc(C(=O)OC)cc2)n(C)c1C	-1.5	-0.4
O=C(NN=C1CCSc2ccc(F)cc21)C1COc2ccccc2O1 (centres undefined)	2.8	1.1
Cc1nnc(CN(C)C(=O)NC(c2ccccc2Cl)C(C)C)n1C (centres undefined)	-23.3	-23.1
O=C1CCCc2cc(C(=O)Nc3ccn(CC(=O)N4CCOCC4)n3)ccc2N1	0.4	-0.2
O[C@H]1CN(Cc2cnn(CCN3CCOCC3)c2)C[C@@H]1N1CCCCC1	12.6	9.6
O=C(C=Cc1ccco1)OC1CCOC1=O (centres undefined)	-3.8	-5.8
CCN(Cc1ccc(N(C)C)cc1)S(=O)(=O)c1ccc(C(C)=O)cc1	-1.0	-4.4
Cc1ccc(-n2cnc(Cl)c2C#N)cc1	6.0	4.6
COc1cccc(Cn2c(=O)c(C(=O)N3CCN(C(C)=O)CC3)nn(-c3ccc(C)c(Cl)c3)c2=O)c1	13.3	13.5
O=C(c1cc(-c2ccccc2F)nn1-c1ccc(Cl)c(Cl)c1)N1CCN(c2ccccc2Cl)CC1	-0.7	8.7
Cc1cc(-c2nnc3sc(-c4cc(C)on4)nn23)n[nH]1	0.5	1.5
CN(C)CCCOc1ccc(-c2nnc3ccc(-c4cncc5ccccc45)cn23)cc1	10.6	-0.5
CC(CCCC(C)(C)O)Cc1[nH]cnc1-c1ccccc1 (centres undefined)	21.8	8.6
CCCNC(=O)CN1CCc2cc(Br)ccc21	-27.3	-25.4
O=C(COc1ccccc1)N1CCN(c2ccc(-n3cccn3)nn2)CC1	-3.7	-8.3
Cc1ccc(/C=C/C2=NC(=C\c3ccc(F)cc3)/C(=O)O2)cc1	1.0	-4.5
O=C(C1CC1)N(Cc1ccccn1)c1nc2ccccc2s1	-2.5	-9.2
Cc1cc(C(=O)N2[C@@H]3CC[C@H]2CNC(=O)C3)c(-c2ccccc2)o1	-2.1	-5.3
CCOc1ccc(C2NC(=O)NC(C)=C2[N+](=O)[O-])cc1OC (centres undefined)	-3.8	-5.1
SMILES	NPYLR7 agonist	NPYLR7 agonist max-min
CN1CCN(C(CNC(=O)NCCCc2ccccc2)c2ccc(N(C)C)cc2)CC1 (centres undefined)	3.8	3.1
CCOC(=O)C(C#N)C1c2cc(Br)ccc2OC(=N)C1C(=O)OCC (centres undefined)	-7.2	-10.7
CCOc1ccc(N2C(=O)CSC2c2cccc(NC(=O)c3ccc(F)cc3)c2)cc1 (centres undefined)	17.5	16.3
O=C(O)c1cc(-c2cccc(Cl)c2)nc2nc(N3CCCCC3)sc12	-3.0	-3.8
CN(CC(=O)Nc1cc2c(cc1Cl)OCCCO2)CC(=O)Nc1c(Cl)cccc1Cl	-8.3	-9.6
CCCOC(=O)NCCOC(=O)N(O)c1ccccc1	-15.0	-18.6
CC(Nc1cccc(C(=O)NC2CC2)c1)c1nnc(-c2ccc(F)cc2)o1 (centres undefined)	4.3	3.3
Cc1cccc(C2CC(C(=O)N3CCOCC3)CN(C(=O)Cc3ccccc3)C2)c1 (centres undefined)	6.3	3.1
Cc1nc2n(n1)C(=O)C(C(c1ccc([N+](=O)[O-])cc1)N1CCC(O)CC1)S2 (centres undefined)	1.0	-0.8
CS(=O)(=O)c1ccc(CN2C(=O)C3(CCC3)ON=C2c2cccs2)cc1	1.8	-2.0
CCOC(=O)c1nn(-c2ccc(C)cc2)c(=O)cc1N1CCN(c2ccccc2)CC1	9.0	5.4
CNC(=O)[C@@H]1C[C@H](N)CN1C(=O)c1csc2c1CCCC2	0.6	-1.0
COCCN(CCC(=O)N1CCOCC1)c1nc(-c2ccc(OC)cc2)nc2ccccc12	-29.5	-18.2
Nc1nnc(SCC(=O)Nc2ccc(F)cc2)s1	-11.6	-21.1
COc1ncccc1-c1ccc(C(O)CN2CCOCC2)cc1 (centres undefined)	5.9	-4.9
CCOc1cccc(C=Nn2c(-c3ccc(C)cc3)n[nH]c2=S)c1O	-7.5	-4.0
COc1cc(C)ccc1NS(=O)(=O)c1ccc(C(=O)O)cc1	7.1	5.6
CC(C)CN(Cc1ccc(OS(=O)(=O)c2cccc(C(F)(F)F)c2)cc1)C(=O)C1C[C@H]1c1ccccc1 (some centres undefined)	11.8	11.3
CCC(C(=O)N(CCOC)CC(=O)N(Cc1ccco1)Cc1cccn1C)c1ccccc1 (centres undefined)	4.2	12.4
CCC(C(=O)N(Cc1nc2cc(Cl)ccc2o1)C1CC1)c1ccccc1 (centres undefined)	0.3	-1.4
Cc1ccccc1C1(O)CCN(C(=O)c2cn3cccnc3n2)C1 (centres undefined)	6.5	5.6
BrC1(Br)C2C3CC4C5CC(Br)(C42)C1C53 (centres undefined)	-2.4	-4.8
O=C(CC1SC(=Nc2ccccc2)NC1=O)Nc1ccc(C(=O)O)cc1 (centres undefined)	3.8	1.5
N#CCC(=O)NNC1=NCCC1	-5.8	-15.5
CCc1ccccc1-c1nc(OC)nc(OC)n1	3.7	-2.7
SMILES	NPYLR7 agonist	NPYLR7 agonist max-min
CS(=O)(=O)CCC(=O)NC1(c2nccs2)CCCC1	-1.1	30.7
COC(=O)Cn1c(=O)c(C(=O)COC(=O)CCC2CCCC2)c(N)n(Cc2ccccc2)c1=O	-2.8	-7.9
CC(Cn1ccnc1)NC(=O)Nc1cn[nH]c1 (centres undefined)	5.5	2.2
Cc1c(Br)c([N+](=O)[O-])nn1CC(=O)NCCCn1ccnc1	-3.5	-8.4
CCOC(=O)N1CCN(CC(=O)Nc2ccc(F)cc2)CC1	-7.5	-9.5
COc1ccc(NC(=O)c2ccc(-n3nc(-c4cccc(C)c4)cc3N)cc2)cc1Cl	-8.6	-16.1

A draw from above in order of SMILES length, descending:
SMILES	NPYLR7 agonist	NPYLR7 agonist max-min
CC(C)CN(Cc1ccc(OS(=O)(=O)c2cccc(C(F)(F)F)c2)cc1)C(=O)C1C[C@H]1c1ccccc1 (some centres undefined)	11.8	11.3
COC(=O)Cn1c(=O)c(C(=O)COC(=O)CCC2CCCC2)c(N)n(Cc2ccccc2)c1=O	-2.8	-7.9
COc1ccc(NC(=O)c2ccc(-n3nc(-c4cccc(C)c4)cc3N)cc2)cc1Cl	-8.6	-16.1
CCOC(=O)c1nn(-c2ccc(C)cc2)c(=O)cc1N1CCN(c2ccccc2)CC1	9.0	5.4
CCC(C(=O)N(CCOC)CC(=O)N(Cc1ccco1)Cc1cccn1C)c1ccccc1 (centres undefined)	4.2	12.4
O=C(CC1SC(=Nc2ccccc2)NC1=O)Nc1ccc(C(=O)O)cc1 (centres undefined)	3.8	1.5
CCOc1cccc(C=Nn2c(-c3ccc(C)cc3)n[nH]c2=S)c1O	-7.5	-4.0
Cc1ccccc1C1(O)CCN(C(=O)c2cn3cccnc3n2)C1 (centres undefined)	6.5	5.6
CCOC(=O)N1CCN(CC(=O)Nc2ccc(F)cc2)CC1	-7.5	-9.5
CS(=O)(=O)CCC(=O)NC1(c2nccs2)CCCC1	-1.1	30.7
BrC1(Br)C2C3CC4C5CC(Br)(C42)C1C53 (centres undefined)	-2.4	-4.8
Nc1nnc(SCC(=O)Nc2ccc(F)cc2)s1	-11.6	-21.1
CCc1ccccc1-c1nc(OC)nc(OC)n1	3.7	-2.7
N#CCC(=O)NNC1=NCCC1	-5.8	-15.5
